Source: PubChem
2A StopGo: FMDV 2A StopGo reporter, luciferase signal; Potency, µM (highest dose often 57.9 µM), for inactives: at the highest dose signal change, negative = less light; human cells with a luciferase reporter of 2A StopGo recoding; control for the full effect not named in the record; 410,000 tested, 1.2% active; AID 1159524; active = well fitted falling curve with a large enough effect; inconclusive = small, poorly fitted or top-dose-only effect; inactive = no such curve, though single readings can be large or run the other way; tested in HEK293T cells; also: nearly all actives have a fitted effect of over 45% in size; luciferase light after 4 h
Cruzain inh Det: blocks cruzain activity in presence of Triton detergent. purified cruzain, Z-FR-AMC fluorescence, 0.01% Triton. 200,000 tested, 0.43% active. Potency, µM, inactives show max response, negative = inhibition, hits mostly inhibitors. AID 1478. P25779;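 also: plate controls were neutral wells for no effect and buffer without enzyme for full effect; nearly all actives have a fitted effect of over 40% in size; top concentration of the series not given in the record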
Target sequence (P25779 123-467 limits assumed): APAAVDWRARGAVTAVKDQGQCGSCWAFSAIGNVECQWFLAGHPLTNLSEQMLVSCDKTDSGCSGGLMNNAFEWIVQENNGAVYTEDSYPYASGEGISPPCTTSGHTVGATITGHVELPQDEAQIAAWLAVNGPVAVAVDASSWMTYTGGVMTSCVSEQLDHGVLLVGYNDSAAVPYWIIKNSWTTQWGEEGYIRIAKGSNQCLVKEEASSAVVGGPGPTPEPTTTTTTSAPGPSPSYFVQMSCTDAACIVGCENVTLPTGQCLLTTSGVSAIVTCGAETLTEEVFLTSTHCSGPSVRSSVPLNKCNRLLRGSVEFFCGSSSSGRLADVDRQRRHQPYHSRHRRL
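Cruzain (1.5 nM) preincubated 15 min at RT with compound in 100 mM sodium acetate pH 5.5, 5 mM DTT, 0.01% Triton X-100. Reaction started with 2 uM Z-FR-AMC; AMC fluorescence (ex 360/em 450 nm) change over 60 s gave rate.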
Cruzain noTriton: cruzain (T. cruzi) inhibition without detergent | P25779 | purified cruzain, Z-FR-AMC fluorescence, no detergent | Potency, µM, for the others: max response, negative = inhibition, usual class: inhibitors | 200,000 tested, 2.3% active;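 also: plate controls were enzyme without inhibitor for no effect and buffer without enzyme for full effect; nearly all actives have a fitted effect of over 40% in size; top concentration of the series not given in the record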
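Detergent-free condition (0.00005% Triton X-100) in acetate buffer pH 5.5 with DTT. 1.5 nM enzyme and compound were pre-mixed 15 min, then 2 uM Z-FR-AMC substrate added; reaction progress from fluorescence change between first and third reads (60 s).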
* marks the source's active call; other numbers are inactive results; ? = inconclusive; / = not tested or not shown; & = joins results of further samples; [ ] = dose if it differs, or a comment. Unless noted, calls follow the shape of the dose curve; as a rule, active = well fitted curve in the direction sought with a large enough effect; inconclusive = small, poorly fitted or top-dose-only effect, or another doubt; inactive = no such curve, though single readings can be large; an effect the other way counts as inactive or inconclusive. Unless noted, % is scaled to controls: 0 for no effect and ±100 for the full control effect; potency is read from the fitted curve at half-maximal effect. Some of the compounds tested; the hit share may differ from the screen's.

SMILES	2A StopGo	Cruzain inh Det	Cruzain noTriton
CC(O)(COc1ccccc1)c1ccc2c(c1)CN(Cc1cccnc1)CCO2 (stereo not drawn)	-19.4%	/	/
COc1ccccc1C1CN(Cc2cn(C)nc2C)Cc2ccccc2O1 (stereo not drawn)	-11.1%	/	/
C[C@@H]1CN(Cc2ccc3c(c2)CN(C(=O)CCc2nc4ccc(F)cc4[nH]2)CCO3)C[C@H](C)O1	-1.3%	/	/
C[N+](C)(C)CC(O)CC(=O)[O-] (stereo not drawn)	-3.5%	/	/
O=C(NCc1ccon1)c1ccc(-c2csc3ccccc23)nc1N1CCC(N2CCCC(CO)C2)CC1 (stereo not drawn)	-7.6%	/	/
COc1ccc(Oc2ncc3ncc(=O)n(C[C@H]4CCCO4)c3n2)cc1	-6.3%	0.4%	7.6%
O=c1cnc2cnc(N3CCNCC3)nc2n1CCc1ccccc1	-11.7%	-9.0%	-9.2%
c1ccc(Nc2cc(-c3ccoc3)ncn2)cc1	18.3%	-1.0%	-9.7%
COc1ccc(-c2nc3cnc(N4CCN(C)CC4)nc3n(C3CC3)c2=O)cc1	-16.4%	2.2%	1.9%
COc1cccc(Nc2ncc3nc(-c4cc(F)cc(F)c4)c(=O)n(C[C@H]4CCCO4)c3n2)c1	2.0%	2.1%	4.3%
O=C(c1cnccn1)N1CCC2(CC1)CN(Cc1ccccc1)C2	-9.5%	4.0%	6.2%
COCCn1c(=O)c(-c2cccc(C#N)c2)nc2cnc(Oc3ccccc3)nc21	?	1.2%	1.4%
CCCCCCNC(=O)n1cc(F)c(=O)[nH]c1=O	22.0%	-0.2%	-6.8%
O=C(O)[C@@H]1Cc2[nH]cnc2C(c2cccnc2)N1 (stereo partly drawn)	-12.7%	2.8%	2.3%
COc1ccc(-n2c(=O)c(-c3cccs3)nc3cnc(OC)nc32)cc1	-6.6%	2.0%	-1.1%
CC(C)CC(NC(=O)CN)C(=O)NC(Cc1ccccc1)C(=O)O (stereo not drawn)	-3.4%	4.5%	-3.5%
COc1cc(-c2coc3cc(OC)c(OC)c(OC)c3c2=O)cc(OC)c1OC	-0.7%	1.0%	1.5%
CN(C)Cc1ccccc1-c1cncnc1NC1CC1	-28.7%	-0.7%	7.3%
O=C(Nc1ccccc1)N1CC[C@@]2(CCCN(C(=O)c3cccc(F)c3)C2)C1	-3.3%	0.8%	-2.1%
COc1ccc(C(=O)N2CCC3(CCCN(C(c4ccccc4)c4ccccc4)C3)CC2)cc1	2.3%	-2.6%	4.9%
C=C[C@@]1(C)CC(=O)[C@@]2(O)[C@@]3(C)[C@@H](O)CCC(C)(C)[C@@H]3[C@H](OC(=O)CCN(C)C)[C@H](OC(C)=O)[C@@]2(C)O1	-8.8%	0.4%	8.4%
CS(=O)(=O)N1CCC2(CCCN(C(=O)Nc3ccccc3)C2)CC1	22.0%	7.5%	-1.1%
COc1ccc(NC(=O)N2CCC3(CC2)CCN(S(=O)(=O)c2ccccc2)CC3)cc1	?	0.3%	-6.3%
COc1ccc(Oc2ncc3nc(-c4ccc(F)cc4)c(=O)n(C)c3n2)cc1	-9.0%	4.6%	8.3%
CC(Oc1ccccc1)C(=O)NC1C(=O)N2C(C(=O)O)C(C)(C)S[C@@H]12 (stereo partly drawn)	2.0%	3.8%	13.3%

Continued.
SMILES	2A StopGo	Cruzain inh Det	Cruzain noTriton
CCNc1ncc2nc(C)c(=O)n(C)c2n1	-5.3%	-14.3%	-22.5%
COC(=O)C1=CO[C@@H](C)[C@@H]2CN3CCc4c([nH]c5cc(OC)ccc45)[C@@H]3C[C@H]12	-16.5%	2.3%	-4.5%
COc1ccccc1-c1cc(N(C)Cc2ccco2)ncn1	-13.4%	-6.4%	-12.7%
CC#CCOC(=O)C1=CCCN(C)C1	-15.3%&-16.8%	2.8%	-5.1%
N#Cc1cccc(NC(=O)N2CCCC3(CCN(C(=O)c4ccncc4)CC3)C2)c1	-8.6%	0.6%	-2.4%
COCCn1c(=O)c(-c2ccccc2)nc2cnc(N3CCOCC3)nc21	2.4%	1.4%	2.4%
COc1cccc(-c2nccc(NCc3ccc(OC)cc3OC)n2)c1	-9.5%	-7.5%	6.1%
N#C/C(=C\c1ccc(O)c(O)c1)C(=O)NCCCCc1ccccc1	1.3%	?	?
CCNc1nc(Cl)nc(NCC)n1	8.0%	0.8%	2.7%
COc1cccc(-c2ccc3ncnc(NCCN4CCOCC4)c3c2)c1	3.6%	-1.6%	0.5%
COC(=O)/C=C/C(C)=C/C=C/C(C)=C/C=C/C=C(C)/C=C/C=C(C)/C=C/C(=O)O	-22.3%	-6.9%	?
NC(N)=NCCCC(NC(=O)C(N)Cc1ccc(O)cc1)C(=O)O (stereo not drawn)	-21.3%	5.3%	-6.2%
C/C(=C\CO)CCC(C)CCCC(C)CCCC(C)C (stereo not drawn)	3.8%	3.9%	-3.4%
O=C(O)/C=C\CO	-2.8%	-0.1%	-4.4%
CC(C)(C)c1cc(C(=O)/C=C/c2ccc(C(=O)O)cc2)cc(C(C)(C)C)c1	25.1µM*	?	10.8%
Cc1noc(C)c1-c1ccc2ncnc(NCc3cccnc3)c2c1	17.8%	-3.1%	6.6%
N[C@@H](Cn1cc(F)c(=O)[nH]c1=O)C(=O)O	-1.2%	-0.7%	-1.2%
CNc1ncnc2ccc(-c3ccccc3C)cc12	?	-0.1%	-6.8%
O=C(c1cnccn1)N1CCC2(CC1)CN(c1cccc(-c3ccccc3)c1)C2	?	-6.0%	?
COc1ccc(-n2c(=O)cnc3cnc(N4CCN(C)CC4)nc32)cc1	4.3%	0.0%	-10.2%
CC(C)NC(=O)N1CCCC2(CCN(C(=O)c3ccncc3)CC2)C1	-4.2%	3.2%	9.1%
CS(=O)(=O)Nc1cccc(-c2ccc3ncnc(Nc4ccccc4)c3c2)c1	-21.6%	-6.3%	-6.3%
CCCCN1CCC(CCC(=O)c2cc(Cl)c(N)cc2OC)CC1	-22.0%&-5.3%	-2.0%	2.1%
COCCn1c(=O)c(-c2cccs2)nc2cnc(N(C)C)nc21	-16.0%	0.5%	-4.8%
CS(=O)(=O)N1CCC[C@@]2(CCN(C(c3ccccc3)c3ccccc3)C2)C1	-8.7%	5.6%	6.0%

The results go on.
SMILES	2A StopGo	Cruzain inh Det	Cruzain noTriton
CC(C)NC(=O)N1CC2(CCN(C(=O)c3cccn3C)CC2)C1	-8.6%	-0.8%	-1.2%
COc1ccc(NC(=O)N2CCC3(CC2)CCN(C(=O)c2cc(C(F)(F)F)cc(C(F)(F)F)c2)CC3)cc1	8.6%	-0.5%	?
O=C(c1cnccn1)N1CCC2(CC1)CN(c1ccccn1)C2	-15.0%	-5.2%	2.6%
COc1ccc(C(=O)N2CCC3(CCN(Cc4ccncc4)CC3)CC2)cc1	3.3%	3.1%	-1.7%
CN(C)c1ncc2nc(CCc3ccccc3)c(=O)n(-c3ccccc3)c2n1	-11.8%	-5.1%	-6.6%
O=C(c1cc(C(F)(F)F)cc(C(F)(F)F)c1)N1CCC[C@@]2(CCN(Cc3nccs3)C2)C1	-15.0%	-2.5%	5.8%
CN1C2CCC1CC(C(=O)OC(CO)c1ccccc1)C2 (stereo not drawn)	-17.7%	3.3%	-1.6%
O=C(O)c1ccc2c3c1cccc3c(=O)n1c3ccccc3nc21	-4.5%	1.4%	-2.7%
CCNc1ncc2nc(CCc3ccccc3)c(=O)n(Cc3cccc(OC)c3)c2n1	29.6%	-2.3%	-2.8%
O=c1cnc2cncnc2n1Cc1ccc(F)cc1	-2.6%	1.1%	1.9%
Cc1cc(O)c(C=O)c2c1C(=O)Oc1c(C)c(O)c3c(c1O2)C(O)OC3=O (stereo not drawn)	-23.9%	-6.3%	18.0%
CCCCCCOc1ccccc1C(N)=O	-7.3%	-1.3%	-28.4%
CCCCC/C=C\CC1OC1CCCCCCCC(=O)O (stereo not drawn)	-2.3%[0.463 µM]	1.2%	-3.0%
COc1cccc(-c2cc(NCCc3c[nH]c4ccc(OC)cc34)ncn2)c1	11.0%	-8.5%	?
CC(=O)OC1CC2C(C)(C)C(O)CC(O)[C@@]2(C)C2CC[C@@]3(C)C(=CC(=O)OC3c3ccoc3)[C@]12C (stereo partly drawn)	26.6%	8.9%	?
CC1CC[C@]2(NC1)OC1CC3C4CC=C5CC(O)CC[C@@]5(C)C4CC[C@]3(C)C1C2C (stereo partly drawn)	2.0%	2.0%	2.0%
Cc1c(C(=O)N(C)C2CCCCC2)sc2nc3ccc(N)cc3n12	24.3%	2.1%	-6.6%
C/C=C(\C)C(=O)OC1C(OC(=O)C2(C)OC2C)c2cc3ccc(=O)oc3cc2OC1(C)C (stereo not drawn)	0.0%	-6.9%	?
CC(C)NC(=O)N1CCC2(CC1)CCN(C(=O)c1ccncc1)CC2	-1.8%	4.5%	-5.3%
O=c1c(-c2ccc(F)cc2)nc2cncnc2n1-c1ccccc1	-1.5%	-4.9%	-19.3%
CCCCC(C)(C)[C@H](O)/C=C/[C@H]1[C@H](O)CC(=O)[C@@H]1C/C=C\CCCC(=O)O	-13.5%[6.7 µM]	6.8%	11.4%
COc1cccc(Cn2c(=O)c(CCc3ccccc3)nc3cnc(OC)nc32)c1	-12.6%	-3.6%	?
Cn1cccc1C(=O)N1CCC2(CC1)CCN(c1cccc(-c3ccccc3)c1)CC2	-26.6%	-2.4%	?
CCCCC(C=O)NC(=O)C(CC(C)C)NC(=O)OCc1ccccc1 (stereo not drawn)	15.7%	0.002µM*	0.0025µM*
c1cncc(-c2cc(-n3ccnc3)ncn2)c1	-9.6%	1.9%	9.5%

Overlap with the part before: 2 entries, then new ones.
SMILES	2A StopGo	Cruzain inh Det	Cruzain noTriton
CCCCC(C=O)NC(=O)C(CC(C)C)NC(=O)OCc1ccccc1 (stereo not drawn)	15.7%	0.002µM*	0.0025µM*
c1cncc(-c2cc(-n3ccnc3)ncn2)c1	-9.6%	1.9%	9.5%
COc1ccc(-n2c(=O)cnc3cnc(N4CCOCC4)nc32)cc1	-12.7%	-0.5%	-9.3%
COc1ncc2nc(CCc3ccccc3)c(=O)n(C)c2n1	31.4%[activator]	-6.5%	-0.1%
CN(C)Cc1ccccc1-c1nc(NC2CCNCC2)c2ccccc2n1	-18.4%	-3.2%	-6.8%
Cn1c(=O)c(-c2cccs2)nc2cnc(N3CCOCC3)nc21	22.5%	5.6%	8.2%
CC(=O)Oc1c(-c2ccccc2)oc2c(CC=C(C)C)c3c(c(OC(C)=O)c2c1=O)C=CC(C)(C)O3	-5.6%	3.4%	-2.9%
COc1ccc(NC(=O)N2CC3(CCN(C(=O)c4cccn4C)CC3)C2)cc1	-0.1%	4.0%	-0.8%
CC(C(=O)O)C1CCC2C3CC=C4CC(O)CC[C@@]4(C)C3CC[C@]12C (stereo partly drawn)	-7.4%	1.1%	-8.0%
COc1cccc(C(=O)CC2c3c(c(Br)c4c(c3OC)OCO4)CCN2C)c1 (stereo not drawn)	8.4%	-2.3%	-16.7%
COc1ccc(CNc2ccnc(-c3ccccc3OC)n2)c(OC)c1	-15.9%	-1.9%	0.9%
CC(CCC(=O)O)C1CCC2C3CC[C@@H]4CCCC[C@@]4(C)C3CC[C@@]12C (stereo partly drawn)	-6.7%	1.5%	0.5%
Cc1noc(C)c1-c1nccc(NCc2cccnc2)n1	-6.8%	1.8%	-3.3%
Nc1nc2c(ncn2C2OC(CO)CC2O)c(=O)[nH]1 (stereo not drawn)	7.1%	-1.0%	7.9%
COc1ccc(/C=C/c2cc(OC)c(OC)cc2CC[N+](C)(C)C)cc1	-12.9%	-0.2%	?
CCNc1ncc2nc(-c3ccc(Cl)cc3)c(=O)n(C3CC3)c2n1	2.2%	-4.5%	10.3%
COC(=O)N1CCC[C@@]2(CCN(c3ccncc3)C2)C1	4.2%	0.0%	-3.3%
CCC(CCC(C)C1CCC2C3CCC4CC(O)CC[C@@]4(C)C3CC[C@@]12C)C(C)C (stereo partly drawn)	-16.0%	-3.1%	9.2%
Cc1cccc(CNc2ncnc3ccc(-c4c(C)noc4C)cc23)c1	-10.5%	-4.0%	-9.1%
COc1ccc(Oc2ncc3nc(-c4ccc(Cl)cc4)c(=O)n(C)c3n2)cc1	-8.1%	4.5%	-8.5%

Random excerpt: 2 records from the list, in no set order.
SMILES	2A StopGo	Cruzain inh Det	Cruzain noTriton
COc1ccc(Oc2ncc3nc(-c4ccc(F)cc4)c(=O)n(C)c3n2)cc1	-9.0%	4.6%	8.3%
CCNc1ncc2nc(CCc3ccccc3)c(=O)n(Cc3cccc(OC)c3)c2n1	29.6%	-2.3%	-2.8%

Individual results from the list:
CCNc1ncc2nc(-c3ccc(Cl)cc3)c(=O)n(C3CC3)c2n1 @ 2A StopGo = 2.2%
Nc1nc2c(ncn2C2OC(CO)CC2O)c(=O)[nH]1 (stereo not drawn) @ 2A StopGo = 7.1%
COC(=O)N1CCC[C@@]2(CCN(c3ccncc3)C2)C1 @ 2A StopGo = 4.2%
COc1ccc(NC(=O)N2CC3(CCN(C(=O)c4cccn4C)CC3)C2)cc1 @ 2A StopGo = -0.1%
